Assay outcomes deposited in PubChem by several laboratories.
CBX7 AlphaScr: inhibitors of human CBX7 binding to H3K27me3 peptide; O95931; normalised signal (fraction of DMSO) (no concentration beside the values); AlphaScreen His6-CBX7 / biotin-H3K27me3 peptide binding; stronger effect = lower value; 66,000 compounds, 1.1% hits; in the data active = normalised signal below about 0.5;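 note: 100 nL library stock added to about 20 µL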
Target sequence (O95931 whole entry, looked up): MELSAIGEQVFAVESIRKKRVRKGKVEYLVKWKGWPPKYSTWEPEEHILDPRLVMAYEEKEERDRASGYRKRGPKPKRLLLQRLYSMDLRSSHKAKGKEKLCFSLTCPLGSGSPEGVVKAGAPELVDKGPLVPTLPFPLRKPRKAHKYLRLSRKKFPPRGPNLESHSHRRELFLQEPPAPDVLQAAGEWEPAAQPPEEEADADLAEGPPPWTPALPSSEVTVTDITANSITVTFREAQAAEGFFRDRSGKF
CBX7 AlphaScr z-score: also measured in CBX7 AlphaScr; calls as there; z-score; measured here: z-score of CBX7 signal; some inactives read as strong as hits; reference of the scale not given here;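 same signal on another scale; lower means less binding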
Active calls of the source: *; & = joins results of further samples.

Each structure is followed by: CBX7 AlphaScr, CBX7 AlphaScr z-score
(1) COc1ccc(C(O)c2nc3ccccc3n2C(C)C)cc1OC (configuration not stated)
 : 1.01&0.98, 0.325&-0.0924
(2) Cc1nc(-c2ccccc2)sc1C(=O)Nc1cccc2ccccc12
 : 1.09, 4.29
(3) CCOc1ccc(NC(=O)CS(=O)(=O)c2[nH]c(-c3cccc(OC)c3)nc2-c2ccccc2)cc1
 : 0.991, -0.326
(4) CCOC(=O)c1cnc2cc(Cl)c(OC)cc2c1NCCCN1CCOCC1
 : 1.1, 1.46
(5) Cc1ccc(S(=O)(=O)N(CCCN2CCOCC2)Cc2cccs2)cc1
 : 0.717, -3.09
(6) CC(=O)N1CCc2cc(S(=O)(=O)NCCC(=O)Nc3ccccc3C)ccc21
 : 1.1, 1.47
(7) COc1ccc(Nc2cc(C(=O)N3CCCCC3)c3ccccc3n2)cc1
 : 0.976, -0.0244
(8) CCOC(=O)c1cc(-c2ccccc2)n(-c2ccc(C(=O)Nc3ccc(F)cc3)cc2)c1C
 : 0.785, -3.06
(9) CCOc1ccc(NC(=O)N(CCCN2CCOCC2)Cc2cccnc2)cc1
 : 1.09, 0.0859
(10) Cc1cc(Br)ccc1OCc1nc(-c2ccccc2)no1
 : 1.44, 20.1
(11) COCCCNC(=O)c1c[nH]c2ccc(S(=O)(=O)Nc3cccc(SC)c3)cc2c1=O
 : 1.07, 1.36
(12) CC(C)(O)C#Cc1ccc(C(=O)NCCc2ccc(S(N)(=O)=O)cc2)cc1
 : 0.945, -0.848
(13) CC(=O)NCCc1cc2ccc(C)c(C)c2[nH]c1=O
 : 1.11, 0.683
(14) Cc1ccc(CNC(=O)CN(C)S(=O)(=O)c2cnc[nH]2)cc1
 : 1.09, 1.28
(15) COC(CNC(=O)c1ccc2c(c1)N=C(C)c1cc(Cl)ccc1S2)OC
 : 0.739, -4.91
(16) Cc1cccc(CN2C(=O)c3ccccc3S(=O)(=O)c3ccc(C(=O)NCc4cccnc4)cc32)c1
 : 1.02, 0.678
(17) Cc1ccc(S(=O)(=O)CC(=O)Nc2ccc(-c3nc4ccc(C)cc4s3)cc2)cc1
 : 1.12, 1.37
(18) Cc1n[nH]c(C)c1NC(=O)c1ccc(-c2ccccc2)cc1
 : 1.01, 0.119
(19) Cc1ccc(-c2nn(C)c(=O)c3ccccc23)cc1CNC(=O)CN1CCOCC1
 : 1.13, 1.36
(20) Cc1ccc(CN2C(=O)c3ccccc3Sc3ccc(C(=O)NCCCN(C)C)cc32)cc1
 : 0.984, -0.719
(21) CN(C(=O)c1ccc2c(=O)n3c(nc2c1)CCCCC3)c1ccccc1F
 : 0.884, -1.91
(22) COC(=O)c1ccccc1NC(=O)Cn1nc(Cc2cccnc2)c2ccccc2c1=O
 : 0.986, -0.148
(23) Cc1ccccc1OCCn1c(SCc2nc3ccccc3[nH]2)nc2ccccc21
 : 0.878, -3.04
(24) c1ccc2c(c1)[nH]c1c(N3CCOCC3)ncnc12
 : 1.06, 1.38
(25) COc1ccc(C2CC(=O)N(CC(=O)Nc3ccc(C(F)(F)F)cc3)c3ccccc3S2)cc1 (configuration not stated)
 : 1.09, 1.32
(26) O=C(CC1Oc2ccccc2NC1=O)NCc1ccc2c(c1)OCO2 (configuration not stated)
 : 0.983, -0.837
(27) Cc1oc(-c2ccccc2F)nc1CSCC(=O)NCCN1CCCC1
 : 0.977, -0.431
(28) CC(=O)Nc1cccc(-c2cn3c(C)cccc3n2)c1
 : 1.1, 1.23
(29) Cc1nnc(SCc2nc(-c3ccc(Br)cc3)no2)n1-c1ccccc1
 : 0.943, -1.3
(30) Cc1cc(C)c(NC(=O)C2CCCN2C2CCCCC2)c(C)c1 (configuration not stated)
 : 0.876, -1.99
(31) CCOC(=O)c1ccccc1NC1c2ccccc2C(=O)N1c1cc(C)ccn1 (configuration not stated)
 : 1.08, 2.91
(32) O=c1c(S(=O)(=O)c2ccccc2)c[nH]c2ccc(F)cc12
 : 1.06, 2.23
(33) COc1ccc(NC(=O)c2cnn(-c3ccccc3)c2C2CCNCC2)cc1
 : 0.987, -0.179
(34) CCn1cc(C(=O)N2CCOCC2)c(=O)c2ccc(C)nc21
 : 1.06, 0.615
(35) CCOc1ccc(C(=O)NCCc2cc3cc(C)c(C)cc3[nH]c2=O)cc1
 : 1.11, 1.37
(36) Cc1ccc(NC(=O)c2cnc3sccn3c2=O)cc1Cl
 : 1.04, 0.524
(37) O=C(NCCOc1ccc(C2CCCCC2)cc1)C1CCCN1S(=O)(=O)c1ccccc1 (configuration not stated)
 : 0.682, -1.12
(38) N#Cc1c(NC(=O)c2cccc(Oc3ccccc3)c2)sc2c1CCC2
 : 1.24, 2.07
(39) CCOc1ccc(CCNC(=O)c2nnc(Cc3ccc(Cl)cc3)o2)cc1OCC
 : 1.08, 2.82
(40) CCOCCOC(=O)c1[nH]c2c(c1C)C(=O)CC(c1cc(OC)ccc1OC)C2 (configuration not stated)
 : 1.04, 1.68
(41) Cc1nnc(NC(=O)c2cn(-c3ccc(F)cc3F)c(=O)c3ccccc23)s1
 : 1.06, 1.88
(42) COc1ccccc1-c1nnc(SCC(=O)N2CCc3ccccc32)o1
 : 1.05, 2.16
(43) CCCN1CCCc2cc(CN(CCCN3CCOCC3)C(=O)Nc3ccc(OCC)cc3)ccc21
 : 0.719, -4.39
(44) CCOC(=O)c1cnc2c(C)c(Cl)ccc2c1N(C)Cc1ccccc1
 : 1.02, 0.048
(45) O=C(NCc1ccccc1)c1cc2n(n1)C(C(F)(F)F)CC(c1ccc(Cl)cc1)N2 (configuration not stated)
 : 0.968, -0.626
(46) O=C(Nc1ccc(F)c(F)c1)C1CCCN(S(=O)(=O)c2cccs2)C1 (configuration not stated)
 : 1.08, 3.19
(47) COc1ccc(C(=O)NCCc2nc3ccccc3n2Cc2c(F)cccc2Cl)cc1OC
 : 1.03, 0.234
(48) Clc1ccc(-c2csc(N3CCN4CCCC4C3)n2)cc1 (configuration not stated)
 : 1.03, 0.0887
(49) Cc1ccc(-c2nc3cc(NC(=O)c4ccc(-c5ccc(Cl)cc5)o4)ccc3o2)cc1
 : 1.04, 1.8
(50) Cc1ccc(-c2nn(CC(=O)NCc3ccccn3)c(=O)c3ccccc23)cc1
 : 0.967, -0.474
(51) CCn1cnc2cc(NC(=O)c3ccccc3)ccc21
 : 1.08, 2.28
(52) O=C(O)c1ccccc1C(=O)Nc1c(-c2ccccc2)nc2ccccn12
 : 0.957, -1.2
(53) COc1cc(OC)cc(-n2nc(C(=O)Nc3cccc(Cl)c3)c3ccccc3c2=O)c1
 : 1, 0.0808
(54) COC(=O)Cc1nc(N(C)Cc2ccccc2)c2c(C)c(C)sc2n1
 : 1.09, 2.53
(55) CC1CCCCN1S(=O)(=O)c1ccc2c(c1)CCN2C(=O)C1CC1 (configuration not stated)
 : 0.989, -0.307
(56) CCOc1ccccc1NC(=O)CN(c1cc(C)cc(C)c1)S(=O)(=O)c1c(C)noc1C
 : 0.943, -0.473
(57) CN(C(=O)c1ccc2c(c1)C(=O)N(CCC1=CCCCC1)C2=O)C1CCCCC1
 : 0.957, -1.1
(58) O=[N+]([O-])c1cccc(-c2cn3ccccc3n2)c1
 : 1.03, 0.41
(59) COc1ccc(CN2C(=O)c3ccccc3C2C(=O)NCCCN2C(C)CCCC2C)cc1 (configuration not stated)
 : 1.06, 2
(60) COc1ccc2nc(N3CCC(C(=O)N4CCN(c5ccccn5)CC4)CC3)sc2c1
 : 0.969, -0.779

Nothing new here: entries from further up.
Each structure is followed by: CBX7 AlphaScr, CBX7 AlphaScr z-score
(57) CN(C(=O)c1ccc2c(c1)C(=O)N(CCC1=CCCCC1)C2=O)C1CCCCC1
 : 0.957, -1.1
(58) O=[N+]([O-])c1cccc(-c2cn3ccccc3n2)c1
 : 1.03, 0.41
(59) COc1ccc(CN2C(=O)c3ccccc3C2C(=O)NCCCN2C(C)CCCC2C)cc1 (configuration not stated)
 : 1.06, 2
(60) COc1ccc2nc(N3CCC(C(=O)N4CCN(c5ccccn5)CC4)CC3)sc2c1
 : 0.969, -0.779

Following part.
Each structure is followed by: CBX7 AlphaScr, CBX7 AlphaScr z-score
(61) COc1cccc(C(=O)Nc2nc(-c3ccccc3)ns2)c1
 : 1.15, 1.66
(62) Cc1oc(-c2ccc(Cl)cc2)nc1CSCC(=O)NC1CC1
 : 1.08, 0.803
(63) CCOC(=O)c1ccc(NC(=O)c2c(NCc3ccc(OC)c(OC)c3)sc3c2CCCC3)cc1
 : 0.612, -5.44
(64) COc1ccc2nc(Nc3nc(C)c(C)c(=O)[nH]3)nc(C)c2c1
 : 1.01, 0.09
(65) Cc1cc(N2CCC(C(=O)NCCC3=CCCCC3)CC2)n2nc(C)c(-c3ccc(Cl)cc3)c2n1
 : 1, 0.00166
(66) COc1ccc(C(=O)N2CCN(c3nc(C(C)C)c4c(c3C#N)CC(C)(C)OC4)CC2)cc1
 : 0.636, -0.43
(67) O=C(NCCc1ccccc1)c1ccc2c(c1)N(Cc1ccccc1)CCS2
 : 0.857, -0.19
(68) O=S(=O)(c1ccc(Cl)cc1)c1nc(-c2ccccc2Cl)oc1N1CCCCC1
 : 0.677, -11.5
(69) COc1cc(OC)cc(-c2nc3nc(C)c(CCC(=O)O)c(C)n3n2)c1
 : 0.697, -3.63
(70) Cc1cc(OCC(=O)Nc2cccc(-c3nc4ncccc4o3)c2C)cc(C)c1Cl
 : 0.814, -2.03
(71) O=C1c2ccccc2C(Nc2cccc(C(F)(F)F)c2)N1Cc1ccc2c(c1)OCO2 (configuration not stated)
 : 0.98, -0.66
(72) Cc1ccc(NC(=O)CN(C)S(=O)(=O)c2ccc3c(c2)n(C)c(=O)c(=O)n3C)cc1C
 : 1.07, 0.658
(73) COc1cccc(CN(C)CCc2ccccn2)c1OC
 : 0.87, -1.02
(74) CCn1cc(C(=O)O)c(=O)c2cc(S(=O)(=O)N3CCC(C)CC3)ccc21
 : 0.952, -0.525
(75) COc1cccc(-c2nnc(SCC(=O)N3CCCC(C)C3)o2)c1 (configuration not stated)
 : 1.02, 0.0466
(76) COc1ccc(CN2CCN(Cc3ccccc3F)CC2)c(OC)c1
 : 0.939, -1.51
(77) O=C(CSc1nc(-c2ccccc2)[nH]c1-c1ccc(F)cc1)Nc1ccc2c(c1)OCCO2
 : 0.825, -0.736
(78) CC(C)c1ccc(CN2CC(C(=O)Nc3ccc(Cl)cc3Cl)CC2=O)cc1 (configuration not stated)
 : 1, 0.0968
(79) CCN(CC)CCCN(C)C(=O)Cn1nc(Cc2ccncc2)c2ccccc2c1=O
 : 1.23, 2.34
(80) COc1ccc(-c2nc3nc[nH]n3c2Nc2ccc(C(C)C)cc2)cc1
 : 0.654, -9.21
(81) CCc1ccc(NC(=O)c2n[nH]c(=O)c3ccccc23)cc1
 : 1.03, 0.442
(82) COc1ccc(C2Sc3ccccc3NC3=C2C(=O)c2ccccc23)cc1OC (configuration not stated)
 : 0.4*, -9.3*
(83) Cc1ccc(-c2nc(C#N)c(NCCCN(C)C)o2)cc1
 : 1.39, 4.23
(84) COc1ccccc1CNC(=O)C1CCCN1S(=O)(=O)c1cccc2cccnc12 (configuration not stated)
 : 1.01, 0.374
(85) CCC(=O)Nc1c(-c2ccc(F)cc2)nc2ccccn12
 : 1.02, 0.476
(86) Cc1ccc(C)c(N2CCN(C(=O)c3cc4sc(Cl)cc4n3C)CC2)c1
 : 0.794, -8.23
(87) CCOCCCNC(=O)c1ccc(NC2=NC3CS(=O)(=O)CC3S2)cc1 (configuration not stated)
 : 1.02, 0.462
(88) COc1cccc(NS(=O)(=O)c2cc(C(=O)O)ccc2NCc2ccccc2OC)c1
 : 1.09, 0.982
(89) COc1ccc(N2CCN(C(=O)c3cn(C)c(=O)c4cc(OC)c(OC)cc34)CC2)cc1
 : 1.02, 0.341
(90) CCn1c(C(O)c2cc(OC)ccc2OC)nc2ccccc21 (configuration not stated)
 : 0.981, -0.633
(91) COc1ccc(-c2nc(CN3CCC(C(=O)NCCC4=CCCCC4)CC3)c(C)o2)cc1OC
 : 1.09, 1.28
(92) O=C(CN1CCN(Cc2cccc(Cl)c2)C1=O)NCc1ccccn1
 : 0.774, -3.24
(93) CCn1c(C(=O)c2ccccc2)c(C(=O)O)c2ccccc21
 : 1.03, 1.03
(94) Cc1ccc(S(=O)(=O)Nc2cccc3ncccc23)cc1
 : 1.07, 1.77
(95) OC(COCc1ccc(Cl)cc1)CN1CCCCC1 (configuration not stated)
 : 1.03, 0.484
(96) Cc1ccc(NC(=O)CS(=O)(=O)c2nc(-c3ccc(C)cc3)cn2-c2ccc(Cl)cc2)cc1
 : 0.806, -5.52
(97) O=C(NC1CCCCCCC1)C1c2ccccc2C(=O)N1Cc1ccc2c(c1)OCO2 (configuration not stated)
 : 1.13, 0.991
(98) CCCCOc1ccc(C(=O)NCCc2cc3c(C)ccc(C)c3[nH]c2=O)cc1
 : 1.02, 0.398
(99) Cc1nc(N2CCCCC2)c2c(C)c(C(=O)N3CCC(C)CC3)sc2n1
 : 1, 0.00897
(100) Cc1cc(C)c2nc(Nc3nc(C)cc(=O)[nH]3)nc(C)c2c1
 : 0.993&1.05, -0.183&0.962
(101) COC(CNC(=O)CCc1c(C)nc2c(-c3ccc(F)cc3)c(C)nn2c1C)OC
 : 0.986, -0.346
(102) COc1ccc(Cl)cc1Nc1nc(-c2cccnc2)nc2ccccc12
 : 0.995, -0.172
(103) Cc1ccc(CCNC(=O)c2cc3c(s2)CSC3)cc1
 : 1.21, 2.29
(104) Cc1ccc(NC(=O)CCc2c(C)nc3c(-c4ccccc4)c(C)nn3c2C)c(Cl)c1
 : 1.26, 2.86
(105) Cc1ccc(C(=O)Nc2ccc(S(=O)(=O)Nc3nccc(C)n3)cc2)cc1
 : 0.975, -0.428
(106) Cc1ccn2c(NC3CCCC3)c(-c3cccnc3)nc2c1
 : 0.908, -0.125

3 structures out of the list, arranged by length of the SMILES, highest first.
Each structure is followed by: CBX7 AlphaScr, CBX7 AlphaScr z-score
(91) COc1ccc(-c2nc(CN3CCC(C(=O)NCCC4=CCCCC4)CC3)c(C)o2)cc1OC
 : 1.09, 1.28
(99) Cc1nc(N2CCCCC2)c2c(C)c(C(=O)N3CCC(C)CC3)sc2n1
 : 1, 0.00897
(103) Cc1ccc(CCNC(=O)c2cc3c(s2)CSC3)cc1
 : 1.21, 2.29

An excerpt. The share of hits here may be higher or lower than overall.
